# Source: PubChem
# RecA intein inh = inhibitors of M. tuberculosis RecA intein splicing; inhibition, %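 (about 9 µM by stock and volumes)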; P9WHJ3; 290,000 compounds, 0.75% hits; cell-free RecA intein splicing, fluorescence; in the data active = inhibition above about 30%; inconclusive = no clear call, values can overlap the other calls;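 also: 0% = vehicle wells and 100% = reference inhibitor control wells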
# Target sequence (P9WHJ3 whole entry, looked up): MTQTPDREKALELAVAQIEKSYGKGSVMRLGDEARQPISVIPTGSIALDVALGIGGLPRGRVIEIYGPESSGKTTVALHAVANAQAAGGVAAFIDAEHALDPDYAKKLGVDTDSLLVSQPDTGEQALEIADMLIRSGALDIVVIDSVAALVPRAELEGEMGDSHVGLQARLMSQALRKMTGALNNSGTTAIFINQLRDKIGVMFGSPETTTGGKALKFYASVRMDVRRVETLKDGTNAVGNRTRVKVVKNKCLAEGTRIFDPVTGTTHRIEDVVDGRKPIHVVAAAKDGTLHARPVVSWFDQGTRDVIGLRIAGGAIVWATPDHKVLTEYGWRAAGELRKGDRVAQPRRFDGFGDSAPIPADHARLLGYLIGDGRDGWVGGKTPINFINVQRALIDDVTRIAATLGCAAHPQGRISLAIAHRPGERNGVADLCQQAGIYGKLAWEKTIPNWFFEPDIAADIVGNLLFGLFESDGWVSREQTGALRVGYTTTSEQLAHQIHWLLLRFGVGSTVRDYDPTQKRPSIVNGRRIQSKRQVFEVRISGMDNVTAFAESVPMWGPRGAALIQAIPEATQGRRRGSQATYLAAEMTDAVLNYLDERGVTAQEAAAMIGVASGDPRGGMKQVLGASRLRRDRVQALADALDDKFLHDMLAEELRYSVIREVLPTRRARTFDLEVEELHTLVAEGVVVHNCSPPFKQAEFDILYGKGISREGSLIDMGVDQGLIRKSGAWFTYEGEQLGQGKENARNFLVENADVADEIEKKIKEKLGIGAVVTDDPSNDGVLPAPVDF
# Mtb growth = M. tuberculosis H37Rv growth inhibitors, H37Rv strain (AID 1626) | M. tuberculosis H37Rv growth inhibition; higher % means a stronger effect | inhibition, % at 10 µM; hits with a dose series show IC50 in µM | 220,000 compounds, 0.95% hits;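 active = confirmed in a dose series; inconclusive = inhibition above 80% but not taken into the dose series; inactive = below 80% or under 30% at every dose of the series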;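 also: bacteria incubated seven days before Alamar blue readout; 0% = bacteria only wells and 100% = bacteria with antibiotic wells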
# Arbovirus inh = antivirals against arbovirus infection. inhibition, % at 10 µM. arbovirus infection cell-based antiviral screen. 200,000 compounds, 0.37% hits. AID 1251;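 active = inhibition from about 30%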;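 also: bluetongue infection of BSR cells; cell survival read as ATP light after 72 h; 0% = infected wells without compound and 100% = uninfected wells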
# Mtb betalactam = beta-lactam sensitization of Mtb H37Rv. M. tuberculosis H37Rv growth with meropenem, percent inhibition; hits of this screen are not shown here. inhibition, % at 25 µM. 330,000 compounds, 0.27% hits. AID 434955;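 active = about 74% or more and at least 40 points above the plate without the antibiotic, then above 30% in a dose series; inconclusive = first-round hits that could not be retested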;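 also: growth measured after seven days incubation then overnight dye step; 0% = bacteria only wells and 100% = bacteria with antibiotic; twin plates without the antibiotic show which effects depend on it; some results filed as inactive read as strong as hits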
# YopH inh = blocks Yersinia enterocolitica YopH tyrosine phosphatase. inhibition, %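 (about 10 µM by stock and volumes)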. fluorescence Ex485/Em525. 140,000 compounds, 0.16% hits;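 active = inhibition of 50% or more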;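 also: controls were vehicle for no effect and minimum signal wells for full effect; inactives centre near -20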
# Arbovirus inh repeat = also measured in Arbovirus inh; calls as there; inhibition, %; measured here: 10K subset replicate screen; many hits read low in the repeat;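 first of two repeat runs on a subset; 0% = infected and 100% = uninfected wells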
# An asterisk follows results filed as active; u = inconclusive; x = no result given. Not all compounds are listed; rates above refer to the full screens.
SMILES,RecA intein inh,Mtb growth,Arbovirus inh,Mtb betalactam,YopH inh,others
COc1ccc(NC(=O)c2ccc(-n3cncn3)c([N+](=O)[O-])c2)cc1OC,-9.5,x,x,-2.9,x,
CCN(C(=O)CSc1ncnc2c1cnn2-c1ccccc1)C1CCS(=O)(=O)C1 (stereo not drawn),9.0,x,x,2.1,x,
CCOC(=O)c1cc(C#N)c(Oc2ccc(F)cc2)nc1-c1ccccc1,14.7,13.7%,-5.5,-5.7,-23.9,
O=c1cc(O)c2sc3nc(-c4ccccc4)cc(C(F)(F)F)c3c2[nH]1,-26.4,-0.8%,8.6,8.4,-14.3,
O=C(Nc1ccc(N2CCOCC2)cc1)C1CC1,-3.7,-4.1%,-3.6,-4.7,-25.1,
O=C(c1cc(-c2ccccc2Cl)nc2ccccc12)N1CCN(c2ccccc2O)CC1,13.4,x,x,72.7,x,
C#CCn1ccc(O)c(Cc2ccccc2)c1=O,-2.6,x,x,2.6,x,
Cc1ccc(C)c2[nH]c(=O)c(C(c3nnnn3Cc3ccccc3)N3CCc4ccccc4C3)cc12 (stereo not drawn),2.2,-6.5%,-1.3,7.0,-3.8,
Cc1nc2cc(C(F)(F)F)ccc2n1C1CCN(CC(=O)NC(C)(C)C)CC1,1.9,-5.4%,-13.6,-1.3,-30.2,
O=C(C(=O)N1CCOCC1)c1c[nH]c2ccccc12,1.3,-2.7%,4.6,-0.6,x,
Cn1cnnc1SCC(=O)Nc1ccc(OCc2ccccc2)cc1,6.8,3.1%,-7.9,6.7,x,
COc1cccc(C(=O)N2CCOCC2)c1,-2.0,3.9%,2.9,2.0,x,
CCOc1ccc(-n2c(=O)c3c(C)c(C)sc3n(CC(=O)NCc3ccco3)c2=O)cc1,x,-3.1%,-22.7,-12.0,-3.7,
Cc1cccc(C(=O)NC(=S)NNC(=O)c2cccs2)c1,8.1,u,-17.4,91.9,-33.5,
CC(C)CC(=O)Nc1ccc2nn(-c3ccccc3)nc2c1,3.8,6.9%,-10.7,86.0,-25.6,
Cc1ccc2sc(NC(=O)CN3C(=O)CCC3=O)nc2c1C,-0.5,1.2%,2.5,-5.2,-34.9,Arbovirus inh repeat=-6.3
Cc1ccc([N+](=O)[O-])cc1NC(=O)c1cccnc1,1.3,x,x,-7.1,x,
O=C(CN1C(=O)CSc2ncccc21)NCCN1CCOCC1,-1.7,-4.2%,-0.5,5.2,-45.6,Arbovirus inh repeat=2.5
CCc1cc(C(=O)c2ccc(OC)cc2)c(NC(=O)COCC(=O)O)s1,-1.8,x,x,-5.7,x,
CC1CCCC(C)N1C(=O)CN1CCN(c2nc(-c3ccc(F)cc3)cs2)CC1 (stereo not drawn),3.6,13.1%,-42.3,u,-12.1,
COC(=O)c1cc(Cl)c(NC(=O)c2ccc(F)cc2)cc1OC,-0.6,-2.0%,-3.3,7.1,-20.6,
Cc1ccccc1NC(=O)c1ccccc1NC(=O)c1ccccc1F,0.9,x,x,9.4,x,
CCCC/C=C/C(NC(=O)c1ccc(-c2ccccc2)cc1)c1ccccc1 (stereo not drawn),-0.4,-5.1%,x,-4.7,x,
CCNC(=S)N(CCc1ccccc1C)Cc1cc2cc(OC)c(OC)cc2[nH]c1=O,2.8,9.4%,-11.5,1.8,-29.3,

# Four compounds out of the list, ordered by molar mass, ascending.
SMILES,RecA intein inh,Mtb growth,Arbovirus inh,Mtb betalactam,YopH inh,others
C#CCn1ccc(O)c(Cc2ccccc2)c1=O,-2.6,x,x,2.6,x,
Cc1ccccc1NC(=O)c1ccccc1NC(=O)c1ccccc1F,0.9,x,x,9.4,x,
CCc1cc(C(=O)c2ccc(OC)cc2)c(NC(=O)COCC(=O)O)s1,-1.8,x,x,-5.7,x,
CC1CCCC(C)N1C(=O)CN1CCN(c2nc(-c3ccc(F)cc3)cs2)CC1 (stereo not drawn),3.6,13.1%,-42.3,u,-12.1,

# Back to the main list, repeating the 4 entries before the break.
SMILES,RecA intein inh,Mtb growth,Arbovirus inh,Mtb betalactam,YopH inh,others
COC(=O)c1cc(Cl)c(NC(=O)c2ccc(F)cc2)cc1OC,-0.6,-2.0%,-3.3,7.1,-20.6,
Cc1ccccc1NC(=O)c1ccccc1NC(=O)c1ccccc1F,0.9,x,x,9.4,x,
CCCC/C=C/C(NC(=O)c1ccc(-c2ccccc2)cc1)c1ccccc1 (stereo not drawn),-0.4,-5.1%,x,-4.7,x,
CCNC(=S)N(CCc1ccccc1C)Cc1cc2cc(OC)c(OC)cc2[nH]c1=O,2.8,9.4%,-11.5,1.8,-29.3,
CC(=O)N1CCCN(Cc2cn(-c3cccc(C)c3)nc2-c2cccc(F)c2)CC1,2.2,9.3%,x,6.0,x,
O=C(CN1CCSc2ccccc21)NCCCc1ccccc1,1.2,-0.2%,-7.8,61.8,x,
CC1(C(=O)N2CCN(c3ccccc3)CC2)CC1(Cl)Cl (stereo not drawn),1.3,0.5%,1.1,4.4,x,
CSc1cccc(NC(=S)N(Cc2ccccc2)Cc2ccccn2)c1,6.5,1.0%,9.2,-2.1,x,
CCOC(=O)N1CCN(C(=O)C2CCN(S(=O)(=O)c3ccc(Br)s3)CC2)CC1,-2.8,-8.2%,-5.7,-6.1,-21.9,
CCN(C(=O)CCN1C(=O)c2ccccc2S1(=O)=O)c1ccccc1,1.0,x,x,-0.4,x,
COc1ccccc1NS(=O)(=O)c1cc(Cl)ccc1OC,1.4,-2.4%,2.3,-5.8,-20.1,
Cc1c(C(=O)Oc2cccc3cccnc23)cccc1[N+](=O)[O-],2.0,6.52µM*,6.8,100.3,x,
CCOC(=O)CSc1nn(C)c(=S)s1,x,-3.4%,2.6,1.2,-5.7,
O=C(CCC(=O)Nc1ccccc1Cl)NNC(=O)c1ccco1,-2.3,1.1%,-3.9,-2.9,-9.4,
CC(C)OC(=O)C1C(=O)CC(C)(O)C(C(=O)OC(C)C)C1c1ccc([N+](=O)[O-])cc1 (stereo not drawn),0.1,-3.1%,19.4,-3.7,x,
COc1cc(C)nc(N2CCC(C(=O)NC3CCCCC3)CC2)n1,-5.1,-2.6%,13.4,-4.6,-11.1,
O=C(Nc1cccc(F)c1)Nc1ccc2c(c1)OCO2,0.3,x,x,1.9,x,
COC(=O)c1ccc(=O)n(Cc2ccc3c(c2)OCO3)c1,1.6,-10.8%,-6.7,-4.2,-30.3,
O=Nc1c(-c2c(O)[nH]c3cc(Br)ccc23)[nH]c2ccccc12,-1.9,x,x,75.6,x,
O=C(Nc1cnc2ccccc2c1)N1CCOCC1,-0.9,10.3%,-0.7,-14.1,-41.3,
CN(C)c1cc(=O)n2c(n1)SCCC2,1.1,-4.9%,6.8,-6.5,15.9,
O=C(C1CCC1)N1CCN(c2ccc(C(F)(F)F)cc2[N+](=O)[O-])CC1,1.9,x,x,4.7,x,
Cn1c(SCC(=O)Nc2ccccc2F)nnc1-c1cc2ccccc2o1,-1.3,3.6%,1.6,8.4,-4.6,
COc1ccc(CN2CCc3ccc(NC(=O)c4ccncc4)cc3C2)c(F)c1,-3.7,x,x,u,x,
CC(CCc1ccccc1)NC(=O)C1CCN(c2nnc(-n3cccc3)s2)CC1 (stereo not drawn),-4.4,4.9%,-8.7,0.1,-44.1,Arbovirus inh repeat=3.2
COc1ccccc1NC(=O)C1CCCN(c2cc(C)nc3ncnn23)C1 (stereo not drawn),1.2,-1.4%,-0.4,-4.1,-9.2,
CC(C)NC(=O)c1onc(CSc2ccc(F)cc2)c1C(=O)O,-0.4,-2.0%,-1.9,79.9,-3.5,
CC12CCC(=O)N1C(C(=O)Nc1nc(-c3ccc(F)cc3)cs1)CS2 (stereo not drawn),-0.1,x,x,2.0,x,
CCCc1cc(=O)oc2c(C)c(OCC(=O)NCCCn3ccnc3)ccc12,-3.0,x,x,7.5,x,
COC(=O)c1ccc(-c2ccc(OC)c([C@H]3[C@H]4C=CC[C@@H](C)[C@@H]4C(=O)N3Cc3ccccc3)c2)cc1,2.2,0.9%,x,-6.0,x,
CCN1CCN(C(c2cc(OC)ccc2OC)c2nnnn2Cc2ccccc2)CC1 (stereo not drawn),0.3,-8.7%,-4.3,-4.7,-39.0,
Cc1ccc(Cl)cc1N1CCN(S(=O)(=O)N2CCCCC2)CC1,x,7.6%,-1.3,-6.8,x,
COc1ccc(C)cc1NC(=O)c1ccc(CN2CCc3ccccc3C2)cc1,3.7,x,x,12.7,x,
COc1ccccc1NC(=O)/C(=N/OCc1ccc(C#N)cc1)C(C)=O,1.0,-1.9%,4.6,-4.6,x,
Cc1cccc(N2CCN(C(=O)C3(S(=O)(=O)c4ccc(Cl)cc4)CC3)CC2)c1C,9.7,-2.8%,1.5,-6.0,x,
CCCOc1ccc(C(=O)NCC2OCCc3ccccc32)cc1OC (stereo not drawn),2.6,-1.6%,6.4,-7.3,x,
N#C/C(=C\c1ccc(O)c(O)c1)C(=O)NCCCc1ccccc1,4.6,-9.4%,-13.1,0.8,-21.8,
CCN(CC)c1ccc(/C=C2\CCC(/C=N/NC(=O)c3ccc(=O)n(C)c3)=C2N2CCOCC2)cc1,-3.7,-0.3%,-7.9,8.3,-21.4,
CSc1nsc(SC)c1C(N)=O,-0.3,-11.6%,x,7.9,x,
O=S(=O)(c1cccc2cccnc12)N1CCc2ccccc21,-1.6,3.9%,9.2,-2.0,-2.4,

# 7 compounds drawn at random from the list so far:
SMILES,RecA intein inh,Mtb growth,Arbovirus inh,Mtb betalactam,YopH inh,others
N#C/C(=C\c1ccc(O)c(O)c1)C(=O)NCCCc1ccccc1,4.6,-9.4%,-13.1,0.8,-21.8,
CCCc1cc(=O)oc2c(C)c(OCC(=O)NCCCn3ccnc3)ccc12,-3.0,x,x,7.5,x,
Cc1ccc(Cl)cc1N1CCN(S(=O)(=O)N2CCCCC2)CC1,x,7.6%,-1.3,-6.8,x,
Cc1cccc(N2CCN(C(=O)C3(S(=O)(=O)c4ccc(Cl)cc4)CC3)CC2)c1C,9.7,-2.8%,1.5,-6.0,x,
CCN(CC)c1ccc(/C=C2\CCC(/C=N/NC(=O)c3ccc(=O)n(C)c3)=C2N2CCOCC2)cc1,-3.7,-0.3%,-7.9,8.3,-21.4,
COc1ccc(C)cc1NC(=O)c1ccc(CN2CCc3ccccc3C2)cc1,3.7,x,x,12.7,x,
CSc1nsc(SC)c1C(N)=O,-0.3,-11.6%,x,7.9,x,

# Additional records
SMILES,RecA intein inh,Mtb growth,Arbovirus inh,Mtb betalactam,YopH inh,others
CC(=O)Nc1ccc(/C=N/Nc2nncc3ccccc23)cc1,-1.8,x,x,6.6,x,
O=C(NCCOC(=O)c1ccc(C(=O)OCCNC(=O)c2ccccc2)o1)c1ccccc1,-0.5,-8.7%,1.2,-8.6,-35.1,Arbovirus inh repeat=6.3
CCN(c1ccccc1)S(=O)(=O)c1nnc(NC(=O)c2ccccc2OC)s1,-1.2,x,x,-4.2,x,
Cc1sc2nc(C(C)Nc3ccccc3N3CCOCC3)[nH]c(=O)c2c1C (stereo not drawn),1.3,4.5%,-7.3,79.5,-28.5,
Cc1c(C(=O)Nc2ccc(C(=O)Nc3ccccc3)cc2)cccc1[N+](=O)[O-],-0.9,x,x,0.2,x,
COc1ccc2[nH]c(C)c(CCNC(=S)Nc3ccc(C)cc3)c2c1,1.0,11.2%,-3.0,4.8,x,
COc1cccc(C2=NOC(C(=O)Nc3ccc(OC)c(OC)c3)C2)c1 (stereo not drawn),-5.1,-4.1%,16.2,-7.4,-58.8,
CS(=O)(=O)c1cccc(S(=O)(=O)N2CCN(c3ccccn3)CC2)c1,0.8,x,x,-6.8,x,
COn1c(SCc2cccnc2)nc2ccccc2c1=O,-1.0,0.3%,-4.8,6.3,-29.2,
Cc1cccc(-c2cc(C(=O)N3CCCc4ccccc43)c3ccccc3n2)c1,15.1,0.7%,-8.7,-7.4,-16.8,
CCOc1ccc(S(=O)(=O)Nc2ccncc2)c(C)c1C,-4.2,0.9%,4.6,-6.3,x,
Cc1ccsc1/C=N/n1c(-c2cc(-c3ccccc3)n[nH]2)n[nH]c1=S,0.2,-3.4%,x,-7.3,x,
CCOC(=O)c1cnc2ccccc2c1NCc1ccco1,1.4,11.9%,x,0.2,x,
c1ccc(COc2ccc(Nc3ncnc4nc[nH]c34)cc2)cc1,3.9,19.4%,-14.0,50.8,1.2,Arbovirus inh repeat=-0.9
CC(=O)[C@@]1(O)C(C)CC2C3C=C(C)C4=Cc5c(cnn5-c5ccccc5)C[C@]4(C)C3C(O)C[C@@]21C (stereo partly drawn),0.0,u,x,1.4,x,
